Screening results as filed in PubChem.
PABP FP inh = blocks human PABP binding to poly(A) RNA. fluorescence polarization. inhibition, % at 35 µM. P11940. 1% of 290,000 active;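 active = 50% or more with normal probe brightness, or confirmed in later tests; inconclusive = above 50% with abnormal brightness, or retests that disagree; inactive = below 50% or failed in later tests; about a fifth of its hits are not listed in these tables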;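 note: calls also rest on retests at 20 µM and on dose response follow-up; controls were probe without protein and protein plus probe with vehicle; some compounds called inactive have numbers as strong as hits; many hits fall short of the cut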
UUG fidelity = alters start codon recognition fidelity in yeast; S. cerevisiae UUG-firefly luciferase reporter, luminescence/redox ratio; activity score, % at 18.7 µM; 0.13% of 350,000 active;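 active = replicate mean at a twofold rise or more, about +100% in these data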;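 note: firefly luciferase made from a UUG start codon reports start codon fidelity; reporter light over untreated wells divided by growth signal over untreated wells; some hits fall short of that in this replicate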
Env fusion inh = inhibitors of HIV Env-mediated cell fusion. HeLa-JRFL Env/CEM21 cell fusion, luciferase. inhibition, % at 12.3 µM. 1.1% of 360,000 active. AID 651610;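 active = mean replicate inhibition score of at least 50 and every replicate individually at or above 50; inconclusive = only one of the two criteria met; inactive = mean below 50 and not all replicates reaching 50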;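 note: 0% = plate neutral controls and 100% = maraviroc near 300 nM; one replicate is shown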
CSC inhib = cancer stem cell inhibition; cancer stem cell-like cells viability, luminescence; inhibition, % at 7.5 µM; 1.1% of 300,000 active;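 active = mean at 75% or more and at least half the replicates too; inconclusive = mean and replicates disagree; tested in HMLE shEcad cells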;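 note: 0% = median of negative and 100% = median of positive control wells; the first replicate is given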
eIF4H inh = inhibitors of RNA binding by human eIF4H | eIF4H fluorescence polarization binding assay | inhibition, % at 35 µM | 0.94% of 290,000 active;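 active = 50% or more with normal probe brightness, or confirmed in later tests; inconclusive = above 50% with abnormal brightness, or retests that disagree; inactive = below 50% or failed in later tests; about a fifth of its hits are not listed in these tables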;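 note: calls also rest on retests at 20 µM and on dose response follow-up; 0% = protein and probe with vehicle and 100% = probe without protein; strong numbers were not always called active; many hits fall short of the cut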
MT1-MMP act inh = inhibitors of human MT1-MMP activation | P50281 | GFP/RFP ratio change, % at 20 µM | HT1080 RFP-PRO-GFP cells, GFP/RFP ratio fluorescence, overnight; percent of plate control window, DMSO zero | 0.061% of 360,000 active | AID 651647;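 active = GFP/RFP ratio change of at least 30% with cell ATP level not reduced by more than half and red fluorescence within 50% of control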; note: strong numbers were not always called active
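Test system: HT1080 RFP-PRO-GFP cells; Benchmarks: DMSO and RFP-L50D-GFP cell wells; Timing: cells overnight before dosing, compound overnight, 37 °C, 5% CO2; Compound: one 20 µM compound dose with 1% DMSO; Read-out: GFP/RFP fluorescence ratio.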
Rce1 inh = inhibitors of yeast Ras-converting enzyme | Q03530 | yeast membranes, quenched prenylated peptide cleavage fluorescence | calls only | 0.27% of 290,000 active;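 active = fall in fluorescence gain of 50% or more versus controls, with final raw signal at or below 3038400; inconclusive = same 50% fall but final raw signal above 3038400; inactive = fall in fluorescence gain under 50%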;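 note: plate controls were neutral control wells for no effect and wells lacking membranes for full effect; tested at 10 µM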
Target sequence (Q03530 whole entry, looked up): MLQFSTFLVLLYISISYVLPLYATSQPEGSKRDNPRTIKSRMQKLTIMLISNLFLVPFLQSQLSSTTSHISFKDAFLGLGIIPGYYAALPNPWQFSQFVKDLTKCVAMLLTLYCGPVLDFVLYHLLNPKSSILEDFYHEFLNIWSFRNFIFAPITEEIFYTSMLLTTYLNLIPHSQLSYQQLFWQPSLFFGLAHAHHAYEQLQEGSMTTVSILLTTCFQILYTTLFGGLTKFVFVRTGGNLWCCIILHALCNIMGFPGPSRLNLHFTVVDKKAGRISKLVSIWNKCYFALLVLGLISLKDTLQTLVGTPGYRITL
eIF4H inh retest = also measured in eIF4H inh; calls as there; inhibition, %; compound at 20 µM; confirmation average;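 mean of two retest wells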
PABP FP inh retest = further read-out of PABP FP inh, marked with its call; inhibition, %; compound at 20 µM; confirmation repeats;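 mean of two retest wells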
MT1-MMP act inh RFP = also measured in MT1-MMP act inh; calls as there; RFP signal change, %; measured here: RFP expression control read;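 0 = vehicle wells; hits needed this value within 50% of zero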
Active calls of the source: *; i = inactive; u = inconclusive; x = not tested or not shown.

SMILES	PABP FP inh	UUG fidelity	Env fusion inh	CSC inhib	eIF4H inh	MT1-MMP act inh	MT1-MMP act inh RFP	Rce1 inh	others
NS(=O)(=O)c1ccc(CCNC(=O)C(=O)NCC2OCCN2C(=O)c2ccc3c(c2)OCO3)cc1 (centres undefined)	36	x	2	2	8	0	1	i
COC(=O)c1cccc(NC(=O)CSc2nnc(C)n2Cc2ccccc2)c1	-7	x	-55	-3	-5	0	3	i
CN/N=C(\Cc1nc2ccccc2[nH]1)c1ccc([N+](=O)[O-])cc1	-6	x	4	x	-11	-1	-3	x
CC(C)N(Cc1nccn1C)C(=O)CC1C(=O)NCCN1Cc1ccc(F)c(F)c1 (centres undefined)	6	-19	20	3	32	-1	5	i
COc1ccc(OC)c(CNC(=O)CCSCc2ccc(F)cc2Cl)c1	-2	-15	5	16	-1	1	-1	i
CC/C(=N\NC(=O)Nc1nonc1N)c1ccc(OC)c(OC)c1	7	-12	16	1	-10	0	-1	i
O=C(Nc1ccc(Br)cc1)c1cccn1-c1ncc(C(F)(F)F)cc1Cl	-8	-14	15	17	-5	1	0	i
COc1ccc(NC(=O)CCC(=O)OCC(=O)c2ccc(Oc3ccc([N+](=O)[O-])cc3)cc2)cc1	-8	x	-6	x	0	4	0	i
Cc1cc(C)n2nc(C(=O)OCC(=O)Nc3ccc(C)c(F)c3)nc2n1	x	-11	-18	-7	x	4	0	x
CCOc1ccc(-c2cccc(NS(=O)(=O)c3ccccc3[N+](=O)[O-])c2)nn1	x	-15	94*	-12	x	-2	-1	i
Cc1nn(C)cc1S(=O)(=O)N1CCN(Cc2ccccc2Cl)CC1	9	x	-1	-5	-3	-1	-6	i
C/C(=N\NC(=O)c1cc(C)nc2ccccc12)c1cccc(Cl)c1	5	2	1	-1	-1	1	-10	i
CCC1(C)N(O)C(C)(C)C(c2ccc(F)cc2)=[N+]1[O-] (centres undefined)	-6	-10	-9	-6	2	-6	2	i
COc1cccc(N2CC(NC(=O)c3cccc4ccccc34)CC2=O)c1 (centres undefined)	x	x	-2	-10	x	3	1	i
C=CCOc1ccc(/C(O)=C2/C(=O)C(=O)N(CCCn3ccnc3)C2c2ccco2)cc1 (centres undefined)	3	-12	-33	14	28	2	0	i
CCCNCc1nnc(-c2ccccc2Cl)o1	0	x	-26	-13	-7	0	7	x
O=S(=O)(Cc1cc(Sc2ccccc2)nc(-c2ccccc2)n1)c1ccccc1	9	x	x	-2	5	0	0	i
CCN(CC)S(=O)(=O)c1ccc(NS(=O)(=O)c2ccc(O)c([N+](=O)[O-])c2)cc1	-3	-4	12	3	-3	-3	4	i
COC(=O)c1sc(NC(=O)c2c(C)noc2C)nc1C	8	-16	-52	-3	-8	-1	2	i
CC(=O)Nc1ccc(S(=O)(=O)Nc2cc(C)ccn2)cc1	u	x	x	-5	-8	1	4	i
COc1ccc(NC(=O)COC(=O)CN2C(=O)c3ccccc3C2=O)cc1	x	-11	0	x	x	-2	-1	x
O=c1[nH]c(C(F)(F)F)nc2c1nnn2Cc1ccccc1F	-3	-11	-80	3	-1	1	0	i
COc1ccc([N+](=O)[O-])cc1Nc1c2ccccc2nc2ccccc12	-3	-3	79*	131*	6	7	-12	i
CCN1CCN(CC(=O)c2c[nH]c3ccccc23)CC1	-3	6	-3	19	2	7	6	i
COc1ccc(-c2ccc(NC(=O)c3ccc(Br)o3)cc2)nn1	x	-2	-67	23	x	5	6	i
O=C1N=C(N2CCCCC2)S/C1=C\c1ccc(Br)cc1	3	-2	8	-12	-7	1	-3	i
COc1ccc(CCNC(=O)C(=O)NCCOc2ccccc2Cl)cc1OC	-10	x	12	x	-6	1	0	i
Cn1cc(CN2CCC(n3nccc3NC(=O)c3ccc4c(c3)OCO4)CC2)cn1	x	-17	-17	x	x	4	0	x
COC(=O)c1c(C)[nH]c(C(=O)CC#N)c1C	-4	-7	-19	12	43	-33	5	i
CC(C)NC(=O)C(C)N1CCN(S(=O)(=O)c2ccc3ccccc3c2)CC1 (centres undefined)	x	x	2	19	x	-1	-2	i
Cc1ccc(NC(=O)Cn2nc(-c3ccccc3)nc2-c2ccccc2)c(C)c1	0	x	-9	-10	-7	3	2	i
Cc1c(C(=O)NCc2ccc3c(c2)OCO3)sc(=O)n1Cc1ccc(S(=O)(=O)N(C)C)cc1	x	-4	37	x	x	9	-19	x
CC(=O)Nc1cccc(NC(=O)CSc2ccc(-c3cccnc3)nn2)c1	0	x	-52	-20	-4	2	1	i
O=C(Cc1c(F)cccc1Cl)OCC(=O)N1CCN(c2ccccc2)CC1	x	-7	-4	-3	x	3	2	x
COc1ccc(C(=O)NCCCN2CCCC2=O)cc1S(=O)(=O)N1CCOCC1	x	-13	-16	x	x	-1	2	x
CC(=O)c1c[nH]c(C(=O)NCC2CCCO2)c1 (centres undefined)	6	-20	-35	x	3	2	4	i
CC(NS(=O)(=O)c1ccccc1)C(=O)Nc1ccc(S(N)(=O)=O)cc1 (centres undefined)	5	16	-3	-10	1	3	2	x
COCCNC(=O)c1cc2c(c(-c3cccc(-c4cccc(OC)c4)c3)n1)[C@H](CCO)N(S(=O)C(C)(C)C)C2 (some centres undefined)	x	-6	16	x	x	1	1	x
COc1cccc(C(=O)c2ccncc2C(=O)O)c1OC	x	-12	8	x	x	2	4	x
COc1ccccc1CCC(=O)OCC(=O)NC1CCCCC1	-15	2	4	0	-1	-3	5	i
Cc1cccc(OCCNC(=O)CSc2ccc(C(F)(F)F)cc2[N+](=O)[O-])c1	10	x	-3	-5	-8	3	4	i
Oc1ccc(Nc2nc(-c3ccccc3)nc3ccccc23)cc1	4	-16	x	19	-4	3	-1	i
CC(=O)Nc1cccc(-c2ccnc3c2CC(C(=O)NCc2ccncc2)O3)c1 (centres undefined)	x	-25	-29	x	x	-1	-4	x
Cc1cccc(/C=C2/Sc3ccc(C(=O)NCCCN4CCOCC4)cc3NC2=O)c1	-1	19	-7	115*	-10	10	6	i
Cc1ccccc1-c1noc(-c2ccccc2C(=O)NCC2CCCO2)n1 (centres undefined)	-6	x	12	-2	-8	-1	0	i
COc1ccc(C(=O)NCC2CCCO2)cc1S(=O)(=O)NCc1ccc(Cl)cc1 (centres undefined)	x	-7	-5	x	x	0	2	x
COc1ccc(CN2C(=O)c3ccccc3C2=O)cc1C(=O)Nc1ccccc1N1CCOCC1	-6	x	20	1	-1	-7	-6	i
CCCCn1nc2cc(C(=O)NC3CCc4ccccc43)ccc2c1OCC (centres undefined)	-5	-13	x	1	1	-1	-6	i
Cc1ccc(S(=O)(=O)Nc2cccc(S(=O)(=O)N3CCCC3)c2)cc1C	x	8	3	x	x	5	1	x
CC(C)c1ccc(C(=O)Nc2ccc(S(=O)(=O)NC3=NCCCCC3)cc2)cc1	x	16	-7	x	x	0	-11	x

More structures follow.
SMILES	PABP FP inh	UUG fidelity	Env fusion inh	CSC inhib	eIF4H inh	MT1-MMP act inh	MT1-MMP act inh RFP	Rce1 inh	others
O=C(Nc1ccc(S(=O)(=O)Nc2ncccn2)cc1)c1cccc([N+](=O)[O-])c1	x	-18	-14	x	x	-2	3	x
CC1(C)CC(=O)C2=C(C1)NC(=O)CC2c1ccc(N(CCC#N)CCC#N)cc1 (centres undefined)	-2	-4	x	-19	2	1	-1	x
Cc1cc(C)c2nc(-c3ccccn3)cc(C(=O)Nc3ccc(S(=O)(=O)Nc4onc(C)c4C)cc3)c2c1	4	x	x	-10	97	1	-3	i	eIF4H inh retest=-4;PABP FP inh retest=1
CCOC(=O)C1(Cc2cccc(Cl)c2)CCCN(C(=O)CCOC)C1 (centres undefined)	-7	9	-26	9	-1	1	1	i
CCCc1cc(=O)oc2cc(C)c(CN3CCCC3)c(O)c12	99*	-21	-18	1	80*	-2	10	i
CC1=C(C(=O)OCc2ccccc2)C(c2ccc3ccccc3c2)NC(=O)N1CCCCCC(=O)O (centres undefined)	-6	x	17	-2	4	x	x	i
Brc1ccc(OCCOc2cccc3cccnc23)cc1	6	x	-28	10	6	2	2	i
CC(C)CN(C(=O)COc1cccc(-n2cnnn2)c1)C1CCS(=O)(=O)C1 (centres undefined)	0	-12	-12	0	-14	2	3	i
COC(=O)CC1C(=O)NCCN1C(=O)CSc1nnc(Nc2ccc(C)cc2)s1 (centres undefined)	-3	-22	x	1	-12	5	3	i
CCN(C(=O)CN1CCN(c2ccc(OC)cc2)CC1)c1c(N)n(Cc2ccccc2)c(=O)[nH]c1=O	-4	-10	x	-13	-2	0	0	i

The closing 3 compounds of the section above come first, to join the parts:
SMILES	PABP FP inh	UUG fidelity	Env fusion inh	CSC inhib	eIF4H inh	MT1-MMP act inh	MT1-MMP act inh RFP	Rce1 inh	others
CC(C)CN(C(=O)COc1cccc(-n2cnnn2)c1)C1CCS(=O)(=O)C1 (centres undefined)	0	-12	-12	0	-14	2	3	i
COC(=O)CC1C(=O)NCCN1C(=O)CSc1nnc(Nc2ccc(C)cc2)s1 (centres undefined)	-3	-22	x	1	-12	5	3	i
CCN(C(=O)CN1CCN(c2ccc(OC)cc2)CC1)c1c(N)n(Cc2ccccc2)c(=O)[nH]c1=O	-4	-10	x	-13	-2	0	0	i
O=P(O)(C(O)c1ccccc1)C(O)c1ccccc1 (centres undefined)	x	-13	12	-12	x	1	3	i
Cn1c(=O)c(C(=O)CN2CC(=O)Nc3ccccc32)c(N)n(Cc2ccccc2)c1=O	12	-12	-6	-9	18	3	2	i
Cc1ccccc1NC(=O)Cn1c(=O)n(Cc2ccccc2)c(=O)c2c(C)c(C)sc21	4	x	-26	-6	0	1	3	i
CC1CCCC(NC(=O)CSc2ncnc3ccccc23)C1C (centres undefined)	x	-11	22	-17	x	4	0	x
CC(=O)Nc1cccc(C(=O)N(Cc2ccccc2)Cc2ccccc2)c1	-7	-20	0	-14	-7	3	-5	x
CCOc1cc(/C=N/NC(N)=O)cc(Br)c1OCc1ccccc1F	2	-42	-47	5	-11	6	-6	i
COc1ccc(-n2c(Cc3cccn3C)nnc2SCC(=O)NC2CCCCC2)cc1	5	-5	9	-11	2	1	1	i
O=C(Cc1ccccc1)N1CCN(c2ccccc2F)CC1	-7	-20	2	-9	-10	1	1	i
O=Cc1cn(CC(=O)N2CCCc3ccccc32)c2ccccc12	-9	-1	x	-9	0	-3	-10	i
CCOc1ccc(CC(=O)Nc2sc(Cc3ccccc3)cc2C(N)=O)cc1OCC	-8	-6	x	-3	-4	x	x	i
COc1ccc(-c2c(C)cc3oc(=O)cc(-c4ccccc4)c3c2C)cc1F	x	-6	13	x	x	-1	-9	x
COc1ccc2cc(C(=O)N/N=C/c3cc(OC)c(OC)c(OC)c3)[nH]c2c1	1	-1	-5	19	-4	5	2	i
COc1cc(CN2CCC(N3CCC(C(=O)N4CCCC4)CC3)CC2)cc2c1OCO2	-5	-4	2	-7	-2	5	3	i
COc1ccc(-c2ccc3oc(-c4ccc(OC)cc4)c(C#CCCO)c3c2)cc1	x	-6	-3	27	x	2	-3	i
O=C(NCC1CCCO1)c1cc2c([nH]c3ccccc32)c(-c2cccc(Cl)c2)n1 (centres undefined)	-5	-11	x	44	-13	-22	-25	i
CCC(=O)NC(Nc1c(C)n(C)n(-c2ccccc2)c1=O)C(Cl)(Cl)Cl (centres undefined)	0	x	-23	4	-1	1	5	i
O=C1OCCC1Sc1nc2ccccc2s1 (centres undefined)	0	-22	x	-4	-5	8	14	i
COc1ccccc1/C=N/NC(=O)c1nnn(-c2nonc2N)c1CN(C)c1ccccc1	-17	-8	7	-7	1	0	3	i
Nc1cc(Br)c(N)c(Br)c1	-2	-4	19	1	-1	8	5	x

Not all compounds are listed. The share of hits here may be higher or lower than overall.
